# Screening results as filed in PubChem BioAssay.
# LANA-nucl inh = LANA-nucleosome interaction inhibition. FITC-LANA1-23 / chicken nucleosome fluorescence polarization; active compounds read low. z-score (test concentration not listed). hit rate 0.3% among 51,000. AID 720717;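 active means both repeat wells score below -2 in polarization z-score versus plate sample wells, excluding overly bright wells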;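 further: 100 nL library stock added to about 30 µL; numbers are from one replicate; some results filed as inactive read as strong as hits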
#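 Test system: purified chicken nucleosomes with FITC-labelled LANA N-terminal peptide (1-23); Input: 240 nM purified chicken nucleosomes (480 nM peptide binding sites), final; Medium: TEN-BT buffer, pH 7.5; Timing: 10–45 min, room temperature; Technique: fluorescence polarization, 480 nm excitation, 535 nm parallel and perpendicular emission; Replication: duplicates.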
# Ab BasE inh = inhibitors of Acinetobacter baumannii siderophore enzyme BasE. AID 485350. inhibition, % (test concentration not listed). purified BasE, fluorescence polarization binding displacement. hit rate 0.1% among 84,000;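 active means both replicates above 25% with normal brightness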;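 further: 0% = negative plate control signal and 100% = positive plate control signal; stock transfer was 100 nL into about 30 µL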
# The depositor's hits bear a star; . = no result given; & = joins results of further samples. This is a subset; count on the stated rates, not on these rows.
# Values run as follows: LANA-nucl inh, Ab BasE inh
> Cc1ccc(-c2nn(-c3ccccc3)cc2C=C2C(=O)NC(=O)NC2=O)o1
    ., -3.8
> N#CCCn1cc(C(=O)Nc2ccccc2Cl)c(-c2ccc(F)cc2)n1
    -0.89, 1.7
> O=c1ccc2cc(O[C@@H]3O[C@H](CO)[C@@H](O)[C@H](O)[C@H]3O)c(O)cc2o1
    -0.51, -3.1
> CC(C)C(=O)Nc1ccc(N2CCN(C)CC2)cc1
    0.25, .
> C=CC(=O)N1CC2CC(C1)c1cccc(=O)n1C2 (centres undefined)
    -0.44, 2.3
> C=Cn1ccnc1P(O)(=S)c1nc(C)c(CCOC(C)=O)s1 (centres undefined)
    ., -0.2
> COc1ccc(Cc2c(O)[nH]c(=S)[nH]c2=O)cc1
    -0.63, 0.1
> OC12CCCCC1C(c1ccc(F)cc1)NCC2 (centres undefined)
    0.22, 2.4
> N#CC1=C(N)Oc2c(c(=O)oc3ccccc23)C1Cc1ccccc1 (centres undefined)
    -0.14, 3.2
> Cc1ccc(-c2nn(CCC#N)cc2C(=O)O)cc1C
    -1.1, 0.9
> O=c1[nH]c(=O)n(C2CCCCC2)c(O)c1C=Nc1ccc(N2CCOCC2)cc1
    0.56, -0.3
> CCN1CCN(Cc2csc3c2CCCC3)CC1
    2.7, -2.3
> O=C(c1cc2c(=O)[nH]c3ccccc3c2s1)N1CCC2(CC1)OCCO2
    0.58, 1.4
> O=C1OCCN1/N=C/c1ccc([N+](=O)[O-])o1
    -0.39&-0.03, -4.0
> COc1ccc(CCN(C)CC2=CCC3CC2C3(C)C)cc1OC (centres undefined)
    -0.47, 3.0
> COC(=O)CC1=C(C(=O)OC)C2(C(=O)Nc3ccc(Br)cc32)C(C(=O)OC)=C(N)O1 (centres undefined)
    -0.15, 2.0
> CC12CN3CC(C)(CN(C1)P3(=O)Oc1ccccc1)C2=O (centres undefined)
    0.42, 0.7
> CCCCN=Cc1c(O)[nH]c(=O)[nH]c1=O
    0.57, 1.5
> CN1C2CCC1/C(=C\c1cccnc1)C(=O)/C2=C/c1cccnc1
    -0.13, 2.0
> Cn1c(O)c(N=Nc2ccc(S(=O)(=O)N3CCOCC3)cc2)c(=O)n(C)c1=O
    ., 2.5
> c1ccc2cc(CN3CCN(c4cccc5[nH]ccc45)CC3)ccc2c1
    -0.48, .
> CC[N+]1(C)CCCC(OC(=O)C(O)(c2ccccc2)c2ccccc2)C1 (centres undefined)
    -0.7&0.58, -2.1&-4.2
> Cn1cccc1/C=C1/C(=O)NC(=O)N(Cc2ccccc2)C1=O
    0.029, -2.7
> CCO/C=N/c1c(C(=O)OCC)c2nc3ccccc3nc2n1Cc1ccccc1
    ., -5.4
> CCOC(=O)CC1NC2CCCCC2NC1=O (centres undefined)
    2.2, -3.0
> CCN(CC)P(=S)(c1ccc(/C=N/NC(N)=O)s1)N(CC)CC
    ., 1.1
> CC(c1ccccc1)N1CCNCC1 (centres undefined)
    0.09, -1.9
> Cc1ccc(P(=S)(c2ccc(C)o2)N2CCOCC2)o1
    ., 1.8
> O=C(c1ccc(Cl)c(Cl)c1)C12CN3CN(CN(C3)C1)C2
    0.72, -0.3
> Cn1cc(C=C(C#N)C#N)c2ccccc21
    -1.4, 3.6
> CC12CC(c3ccccc3O1)C(C(=O)O)C(=O)N2CCC1=CCCCC1 (centres undefined)
    -1.1, 1.4
> COc1ccc(C=C2C(=O)N(C)C(=O)N(C)C2=O)cc1
    1.3, -4.3
> O=C(O)C(Cc1cnc[nH]1)N1C(=O)c2ccccc2C1=O (centres undefined)
    ., 0.0
> COc1ccc(-n2c(Sc3ncccn3)nc3ccccc3c2=O)cc1OC
    ., 0.3
> CCN1C(=O)C(=C2C=C(C)OC(C)=C2)C(=O)N(CC)C1=S
    ., 0.5
> O=C(c1ccc(CNS(=O)(=O)c2ccccc2)cc1)N1CCC2(CC1)OCCO2
    -0.17, 3.4
> C/C(CC(c1ccccc1)c1c(O)c2ccccc2oc1=O)=N/O (centres undefined)
    ., 4.5
> Clc1ccc(CSC(Cn2ccnc2)c2ccc(Cl)cc2Cl)cc1 (centres undefined)
    -0.042&-0.09&0.56, -0.8&-1.9
> CCN1CCN(Cc2ccoc2)CC1
    -0.15, -0.3
> O=C(c1cccc(N2CCCC2=O)c1)N1CCC2(CC1)OCCO2
    0.57, -0.1
> O=C1CN=C(c2ccccc2)c2cc([N+](=O)[O-])ccc2N1
    -0.43, .
> CCC1CN2CCC34c5ccccc5NC3C(C)C1CC24 (centres undefined)
    -0.078, -2.1
> Cc1nn(-c2ccccc2)c2c1P(=S)(N1CCOCC1)OC(c1ccccc1)=N2 (centres undefined)
    ., -5.1
> CN1CCN(c2ccc(C(F)(F)F)cc2NO)CC1
    0.2, .
> S=c1n(CN2CC=C(c3ccccc3)CC2)nc2sc3ccccc3n12
    ., -2.3
> CC1=CC(=O)C2=C(C)C[C@H](O)[C@@H]3[C@H](OC(=O)[C@H]3C)[C@@H]12
    0.068, 1.5
> CN(C)/N=C/c1ccc(C2(O)C(=O)NC(=O)NC2=O)o1
    -1.1, 1.2
> CN(C)c1ccc(CN2CCN(Cc3ccccc3)CC2)cc1
    0.18, -0.3
> OC1(c2cccc(F)c2)CC2CCC(C1)N2 (centres undefined)
    -2.1, 1.6
> CCc1c(CCN)csc1C
    -0.36, -16
> c1ccc(C2=NP(N3CCOCC3)(N3CCOCC3)=NC(N3CCOCC3)=N2)cc1
    ., -1.3
> CCC(=O)c1c(O)n(C)c(=O)n(C)c1=O
    -0.54, 0.5
> CN1C(=O)c2ccccc2C(C(=O)N2CCC3(CC2)OCCO3)C1c1cccs1 (centres undefined)
    -0.56, 0.9
> Cc1ncc2n1-c1ccc(Cl)cc1C(c1ccccc1F)=NC2
    0.19, .
> Cc1nn(CC(C)C)c(Cl)c1C(=O)NC1CC1
    ., -0.3
> CCN1C(=O)/C(=C/C=C/c2ccco2)C(=O)NC1=S
    ., -2.9
> C[C@]12CC[C@H](O)C[C@H]1CC[C@@H]1[C@@H]2CC[C@]2(C)[C@@H](C3=CC(=O)OC3)CC[C@]12O
    0.36, -2.4
> COc1ccc(NC(=O)c2cn(CCC#N)nc2-c2ccc(OC)cc2)cc1
    0.01, -1.7
> Cc1[nH]c2c(C)cccc2c1CCN
    0.088, 1.7
> Cc1nnc(SCC(=O)Nc2ccc(C#N)c(Cl)c2)n1N
    ., 0.3

# (further entries)
# Values run as follows: LANA-nucl inh, Ab BasE inh
> O=[N+]([O-])O[C@H]1CO[C@H]2[C@@H]1OC[C@H]2O[N+](=O)[O-]
    0.17&-0.34&0.045, -0.1&0.5
> CCN(CC)C(=O)c1ccc(NC(=O)Nc2ccccc2OC)cc1
    ., 1.0
> OC1C2(c3ccccc3)CN3CN(C2)CC1(c1ccccc1)C3 (centres undefined)
    1.7, -4.8
> OC[C@H]1O[C@@H](Oc2c[nH]c3ccc(Br)c(Cl)c23)[C@H](O)[C@@H](O)[C@H]1O
    ., -9.3
> CN=C(Cl)c1cccs1
    ., 2.1
> ClC1C(Cl)C(Cl)C(Cl)C(Cl)C1Cl (centres undefined)
    0.24&-0.36, -1.1
> C=C[C@@H]1CN2CCC1C[C@@H]2[C@H](O)c1ccnc2ccccc12 (some centres undefined)
    -0.31, 1.3
> CCN1C(=O)C2(Cc3ccccc3N3CCCC32)C(=O)N(CC)C1=S (centres undefined)
    ., 0.4
> O=C(O)CCC1C(=O)NC(=O)NC1=O
    -0.69, -0.1
> c1ccc2c(c1)Oc1ccccc1O2
    0.5, 0.5
> Cn1c(N)c(N2CCNCC2)c(=O)n(C)c1=O
    ., 0.6
> Oc1ccc2c3c1O[C@H]1c4oc5ccccc5c4C[C@@]4(O)[C@@H](C2)N(CC2CC2)CC[C@]314
    0.037, .
> OC[C@H]1O[C@@H](n2cnc3cc(Cl)c(Cl)cc32)C(O)[C@H]1O (some centres undefined)
    -0.48, 1.6
> Clc1ccc(COC(Cn2ccnc2)c2ccc(Cl)cc2Cl)c(Cl)c1 (centres undefined)
    -0.13&-0.054&-0.18&-0.78, -2.9&-0.8
> CCc1ccc(NC2=NCCS2)cc1
    ., 0.0
> COC(=O)CC1(CC(=O)OC)C(=O)N(C)C(=O)N(C)C1=O
    -0.26, 0.0
> CC(CCc1ccccc1)NC(C)C(O)c1ccc(O)cc1 (centres undefined)
    -0.28&0.73, 1.9
> CC1[C@H](C)OC(=O)CC(O)CC(O)CC(O)CCC(O)C(O)C[C@]2(O)CC(O)C(C(=O)O)C(CC(OC3O[C@H](C)[C@@H](O)[C@H](N)[C@@H]3O)/C=C/C=C/C=C/C=C/CC/C=C/C=C/[C@H](C)[C@H]1O)O2 (some centres undefined)
    -0.21&0.66, 1.2
> CC(C)OP(C)(=O)C(N)=O (centres undefined)
    ., 1.9
> CN1C(=O)C(=Cc2ccc(O)cc2)C(=O)N(C)C1=O
    -0.55, 2.2
> COCCNC(=O)Cn1cc(C=C2C(=O)N(C)C(=O)N(C)C2=O)c2ccccc21
    -3.9, 19
> Cc1onc(-c2c(Cl)cccc2Cl)c1/C(N)=N/OC(=O)N(C)C
    0.35, -1.2
> C=C[C@H]1CN2CC[C@H]1C[C@@H]2[C@@H](OC(=O)OCC)c1ccnc2ccc(OC)cc12
    0.3&-0.43, -3.4
> O=c1cccc2n1CC1CC2CN(c2nc(Cl)nc(Cl)n2)C1 (centres undefined)
    -2.1, 0.3
> CCN(CC)Cc1nc2ccccc2c(=O)n1-c1ccc(F)cc1
    0.039, 1.7
> NC(CC(=O)O)C1CCCCC1 (centres undefined)
    2.2, .
> O=C(CN1CCC(N2CCCCC2)CC1)N1CCC2(CC1)OCCO2
    -0.72, 1.1
> Cc1ccc(C(C)C)c(OC(=O)N(C)C)c1CN(C)C
    0.51, -0.8
> N=C1SCC(=O)N1Cc1ccccc1
    0.064, 0.5
> CNCC(O)c1ccc(O)cc1 (centres undefined)
    1&-0.77, -0.4
> CC(C)c1ccc(CO)cc1
    ., -0.5
> CC12NC(=O)CN1CCc1ccccc12 (centres undefined)
    -0.11, 4.8
> CC(C)c1ccc(CCN)cc1
    ., 1.1
> S=P12CN3CN(CN(C3)C1)C2
    ., 2.4
> Nc1ccc([As](=O)(O)O)cc1
    0.074, .
> CC1OC(=O)C(C(C)C)NC(=O)C(C(C)C)OC(=O)C(C(C)C)NC(=O)C(C)OC(=O)C(C(C)C)NC(=O)C(C(C)C)OC(=O)C(C(C)C)NC(=O)C(C)OC(=O)C(C(C)C)NC(=O)C(C(C)C)OC(=O)C(C(C)C)NC1=O (centres undefined)
    0.025, 0.2
> CCN1C(=O)C(=Cc2cccn2C)C(=O)N(CC)C1=S
    -0.061, 11
> NNCc1ccccc1
    -0.44, -0.8
> CC1(C)CN=C(Nc2ccc(F)c(F)c2)S1
    -0.23, 2.5
> C=C(C)CN1CC[C@]23c4c5ccc(O)c4O[C@H]2c2[nH]c4ccccc4c2C[C@@]3(O)C1C5
    -0.22, .
> Cn1cc(C(=O)N2CCOCC2)c2ccccc21
    -0.36, .
> CCC(CC)C(=O)NC1CCSC1=O (centres undefined)
    0.89, -0.1
> CCCC1=C(C(=O)OCC)C2(C(=O)N1)C(C(=O)OC(C)C)=C(N)Oc1ccccc12 (centres undefined)
    1.1, -0.4
> CCC(=O)N1C(C(=O)O)CSC12CCN(C)CC2 (centres undefined)
    2.6, -0.9
> COc1ccc(N2CCN(Cc3nc4ccccc4[nH]3)CC2)cc1
    ., 0.8
> O[C@H]1[C@H](O)[C@@H](O)CN2CC[C@H](O)[C@H]12
    -0.82, 0.1
> Nc1c(Br)cc(Br)cc1Br
    0.032, 2.7
> N#CC(C#N)=Cc1ccc(-c2ccccc2)o1
    -4.7*, -26
> COc1ccc2c(c1)c(C(=O)Nc1nccs1)c(C)n2C1CCCCC1
    ., -5.0
> CCN1CCN(c2ccc(N)cc2C)CC1
    ., 1.8
> NC(Cc1ccccc1)c1ccccc1 (centres undefined)
    ., -1.3
> N#CC(C#N)=Cc1cc(Br)cs1
    0.041, 0.3
> S=C=NCc1ccccc1
    -0.69, -1.1
> Fc1cccc(Cl)c1CN1CCNCC1
    ., -0.6
> CN(C)C(=O)Oc1ccnc2cc(Cl)ccc12
    -0.49, 0.9
> CCCC(C)c1c(O)n(CC)c(=S)[nH]c1=O (centres undefined)
    -0.023, -1.6
> CCc1ccc(C(=O)C23CN4CN(CN(C4)C2)C3)cc1
    -0.064, 1.6
> Fc1ccccc1CNC1CN2CCC1CC2 (centres undefined)
    0.0045, 0.8
> O=C1NC(=O)N(c2ccccc2)C(=O)/C1=C/c1ccco1
    ., -0.4
> CCOC(=O)C(O)(c1ccc(N(CC)C(=O)OC)cc1)C(F)(F)F (centres undefined)
    -0.48, -2.5

# Further structures follow.
# Values run as follows: LANA-nucl inh, Ab BasE inh
> CNC(=O)O/N=C/c1nn(C(=O)C(C)(C)C)cc1Br
    1.6, -0.5
> CCNc1ccc(P(=S)(N(C)C)N(C)C)cc1
    ., 2.0
> CN[C@@H]1C2CN3CCC(O2)[C@@H]13 (some centres undefined)
    -0.062, 1.1
> COc1cccc([C@@H]2CCN(CC(=O)Nc3cc(Cl)ccc3OC)C[C@H]2O)c1
    0.46, -0.5
> C=CCOC(=O)C1=C(C)NC(=O)C12C(C(=O)OC)=C(N)Oc1ccccc12 (centres undefined)
    -0.25, -0.2
> CC1(C)CC(=O)C(C=NCCN2CCN(C(=O)Cc3ccccc3)CC2)=C(O)C1
    0.046, 0.4
> N#C/C(=C\c1ccccc1)C(=O)O
    ., 3.6

# Sorted by molar mass (descending): some entries from above.
# Values run as follows: LANA-nucl inh, Ab BasE inh
> O=c1cccc2n1CC1CC2CN(c2nc(Cl)nc(Cl)n2)C1 (centres undefined)
    -2.1, 0.3
> O=C(c1ccc(Cl)c(Cl)c1)C12CN3CN(CN(C3)C1)C2
    0.72, -0.3
> Cn1c(N)c(N2CCNCC2)c(=O)n(C)c1=O
    ., 0.6
